ClpP mod: qHTS Assay for Activators of ClpP | ATP-dependent Clp protease proteolytic subunit (Bacillus subtilis (strain 168)), P80244 | purified B. subtilis ClpP, FRET peptide cleavage, 20 min | Potency, µM (series often up to 57.5 µM), without a hit: top-dose activity change, negative = active | actives 1.9% (n = 340,000) | AID 651965, 2013; active = well fitted falling curve with a large enough effect; inconclusive = small, poorly fitted or top-dose-only effect; inactive = no such curve, though single readings can be large or run the other way; further: potency means the concentration at half of the fitted maximal effect; the source files actives as falling curves though it sought activators and does not explain the sign; nearly all actives have a fitted effect of over 65% in size; many hits overshoot -100%
Target sequence (P80244 whole entry, looked up): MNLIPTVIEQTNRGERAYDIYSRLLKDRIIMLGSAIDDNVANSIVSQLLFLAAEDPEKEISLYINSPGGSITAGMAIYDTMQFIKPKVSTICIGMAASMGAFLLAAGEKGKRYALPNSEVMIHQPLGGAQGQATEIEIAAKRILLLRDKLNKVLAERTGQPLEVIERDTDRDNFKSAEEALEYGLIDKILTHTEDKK
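ClpP 10 microg/mL final, pH 8 Tris/KCl buffer with BSA, glycerol, Tween-20; compound pinned in; FRET-FV substrate; RT 20 min; Ex320/Em430; ΔFRET vs ADEP 5.8 microM, DMSO, no enzyme.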
D2 ag: Beta-Arrestin HTS for Positive Allosteric Modulators of the Human D2 Dopamine Receptor: Agonists. D(2) dopamine receptor (Homo sapiens), P14416. DiscoveRx PathHunter D2 beta-arrestin, luminescence, 90 min; 100% = 57 uM dopamine signal. activation, % (no concentration beside the values). actives 0.084% (n = 360,000); in the data active = activation above about 40%; inconclusive = about 15% to 40%; inactive = below about 15%; further: compound concentration not given in the record; the text of the record calls up to 30% inactive
Target sequence (P14416 whole entry, looked up): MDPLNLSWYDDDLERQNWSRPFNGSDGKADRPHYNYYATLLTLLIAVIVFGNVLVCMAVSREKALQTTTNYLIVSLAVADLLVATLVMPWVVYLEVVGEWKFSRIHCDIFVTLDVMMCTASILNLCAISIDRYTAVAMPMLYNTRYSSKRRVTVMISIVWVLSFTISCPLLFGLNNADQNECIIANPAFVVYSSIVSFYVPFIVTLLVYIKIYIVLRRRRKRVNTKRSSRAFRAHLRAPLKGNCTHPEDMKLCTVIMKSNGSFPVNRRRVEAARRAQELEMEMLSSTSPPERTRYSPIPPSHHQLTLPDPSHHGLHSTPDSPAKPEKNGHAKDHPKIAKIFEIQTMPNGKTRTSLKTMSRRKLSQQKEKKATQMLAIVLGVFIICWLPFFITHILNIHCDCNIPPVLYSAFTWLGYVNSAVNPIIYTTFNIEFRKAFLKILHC
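DiscoveRx PathHunter D2 beta-arrestin cells (2,100/well) attached overnight, then compound-stimulated 90 min at 37 C in HBSS/10 mM HEPES/0.1% Tween-20 buffer; beta-galactosidase complementation read by luminescence after 1 h at ambient temperature. Dopamine 57 uM final (EC100) as control.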
PINK1 modulator: A Quantitative High throughput Screen to Identify Chemical Modulators of PINK1 Expression. PINK1 immunofluorescence, high-content cytometry, 24 h. Potency, µM (doses to about 76.6 µM), for inactives: at the highest dose activation (PINK1 increase), hits mostly activators. actives 0.2% (n = 410,000); active = well fitted activation curve with a large enough effect; inconclusive = small, poorly fitted or top-dose-only effect; inactive = flat fitted curve, though single readings scatter; cell line not stated here;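 further: potency means the concentration at half of the fitted maximal effect; % of control where 0% means no effect; nearly all actives have a fitted effect of over 65% in size; a mitochondrial uncoupler was the plate control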
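Stable cell line, 250 cells/well, 12 h attachment; compounds pinned at 5 concentrations, 24 h; CCCP control. Fixed with nuclear dye, primary antibodies 12 h at 10 degrees C, secondary plus cell stain; laser-scanning cytometer read.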
gsp agonist: qHTS for Agonist of gsp, the Etiologic Mutation Responsible for Fibrous Dysplasia/McCune-Albright Syndrome: qHTS | gsp mutant cells, cAMP HTRF, 30 min; control for the full effect not named in the record | Potency, µM (highest dose often 76.9 µM), inactives show top-dose activation (cAMP increase), hits mostly activators | actives 0.13% (n = 340,000) | AID 624287, 2012; active = well fitted activation curve with a large enough effect; inconclusive = small, poorly fitted or top-dose-only effect, or another doubt; inactive = no such curve, though single readings can be large or run the other way; cell line not stated here;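 further: phosphodiesterase inhibitor Ro 20-1724 added with compounds to block cAMP breakdown; potency means the concentration at half of the fitted maximal effect; nearly all actives have a fitted effect of over 60% in size; about a fifth of the inactives were tested at one dose only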
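Cells stably selected in G418 were plated at 2000/well, grown 16-24 hr, then given compounds in DMSO with the PDE inhibitor […] (300 uM solution added) for 30 min at 37C; cAMP was read by HTRF.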
Menin MLL FP FL: qHTS Assay for Inhibitors Targeting the Menin-MLL Interaction in MLL Related Leukemias: Competition With Fluorescein Labeled MLL-derived Peptide; 290,000 tested, under 10 active; AID 1766, 2009; FP activity change, % at 61.4 µM; Fluorescence polarization, fluorescein-MLL peptide displacement from menin; inconclusive = falling polarisation curve, or a change in total fluorescence; inactive = total fluorescence flat and polarisation flat or rising; no compound was filed as active; the % refers to the polarisation; negative = inhibition;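 further: % of control where 0% means no effect; inhibitors lower the polarisation; unlabelled MLL peptide was the positive control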
gsp antag: qHTS for Antagonists of gsp, the Etiologic Mutation Responsible for Fibrous Dysplasia/McCune-Albright Syndrome: qHTS. gsp-mutant cells, cAMP HTRF, 30 min; control for the full effect not named in the record. AID 624288, 2012. Potency, µM (top dose mostly 76.9 µM), without a hit: top-dose activity change, negative = inhibition, actives largely listed as inhibitors. actives 0.4% (n = 340,000); active = falling curve of any shape with a large fitted effect; inconclusive = falling curve, mostly with a smaller effect; inactive = flat or rising curve; cell line not stated here;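 further: intracellular cAMP measured with PDE inhibitor Ro 20-1724 present during compound exposure; potency means the concentration at half of the fitted maximal effect; on the % scale 0 is the no-effect control and ±100 the full control effect; nearly all actives have a fitted effect of over 65% in size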
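Measurement of cellular cAMP by homogeneous time-resolved fluorescence following a 30 min compound exposure at 37C. The PDE inhibitor […] was present throughout; the assay buffer was DPBS with 0.05% BSA and 0.005% Tween 20.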
Sfp inh: qHTS Assay for Inhibitors of Bacillus subtilis Sfp phosphopantetheinyl transferase (PPTase) | AID 1490, 2009 | actives 3.5% (n = 310,000) | Biochemical Sfp PPTase activity, qHTS | 4'-phosphopantetheinyl transferase ffp (Bacillus subtilis), Q9F4F7 | Potency, µM, inactives show max response, negative = inhibition, most hits filed as inhibitors; active means well fitted inhibition curve with a large enough effect; inconclusive means small, poorly fitted or top-dose-only effect, or another doubt; inactive means no such curve, though single readings can be large or run the other way;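 further: the enzyme is Sfp with the accession as filed and its product quenches rhodamine fluorescence; potency means the concentration at half of the fitted maximal effect; 0% = enzyme reaction without inhibitor and -100% = no enzyme wells; top concentration of the series not given in the record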
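Sfp 15 nM + cpd, 15 min RT; start w/ rhodamine-CoA 5 uM, BHQ-2-YbbR 12.5 uM (final); 50 mM Hepes pH 7.6, 10 mM MgCl2, 0.01% NP-40, 0.01% BSA; read 525/598 nm at 0 and 30 min.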
An asterisk follows results filed as active; ? = inconclusive; / = not tested or not shown; [ ] = dose if it differs, or a comment. Rows are unselected, and some 5.1% of all compounds hit somewhere here.

SMILES	ClpP mod	D2 ag	PINK1 modulator	gsp agonist	Menin MLL FP FL	gsp antag	Sfp inh
O=c1c2cn[nH]c2[nH]c(=S)n1-c1ccccc1F	-2.0%	-0.8	-0.5%[38.3 µM]	-60%[inhibitor]	1.9	-2%	-12%
COc1ccccc1CNC(=O)CSc1nn2c(=O)c(C(C)(C)C)nnc2s1	-1.0%	0.3	3.2%	-3%	-0.1	-5%	24%
COc1ccc(NC(=S)N(Cc2ccc(N(C)C)cc2)Cc2ccco2)cc1	-1.0%	-3.0	-0.2%	-5%[15.4 µM]	-1.4	2%	-7%
COc1cccc(-c2ccc3c(c2)N(Cc2ccc(F)cc2)C(=O)C(C)S3)c1 (stereo unspecified)	-1.0%	-4.1	8.8%	/	/	/	/
O=C(NCC1CCCO1)c1cccs1 (stereo unspecified)	-1.0%	-1.4	2.2%[38.3 µM]	-1%	0.1	13%	3%
COCc1cc(=O)[nH]c(-c2ccccc2OC(F)(F)F)n1	1.3%	1.1	-0.4%	14%	3.2	14%	22%
CCc1ccc(N(CC(=O)NC2CCCC2)C(=O)CCC(=O)Nc2ccccn2)cc1	/	-2.6	1.3%	4%[15.4 µM]	-9.4	11%	4%
Cc1ccc(OCC(=O)Nc2ccc(N3CCN(S(C)(=O)=O)CC3)cc2)cc1	/	3.8	-0.1%	2%[15.4 µM]	-2.6	6%	7%
CCCn1c(O)c(N=NC(=O)c2cccnc2)c2cc(Br)ccc21	/	0.9	0.1%	0%[15.4 µM]	3.2	2%	10%
CCOc1cc(C(=O)N/N=C/c2ccsc2)cc(OCC)c1OCC	1.2%	-1.8	13%	-52%[inhibitor]	7.9	5%	14%
O=S(=O)(ON(c1ccccc1)S(=O)(=O)c1ccccc1)c1ccccc1	-1.8%	-1.6	0.2%	-95%[inhibitor]	5.0	1%	9%
CC(C)NC(=O)CCNC(=O)c1ccc(F)cc1	0.6%	-1.6	7.3%[38.3 µM]	?	1.8	13%	4%
COc1ccc(C2=NNC(=O)C2(C)Br)cc1 (stereo unspecified)	-3.9%	-2.4	-0.6%	-2%	/	-16%	/
O=C(NCC1CCCCC1)c1ccc(=O)[nH]c1	/	-5.6	4.2%	1%	0.5	9%	11%
CN(C(=O)c1cccc(NC(=O)Cc2cccc(NC(=O)C3CCN(C(=O)C4CCCCC4)CC3)c2)c1)C1CC1	-0.8%	-2.7	0.8%	/	/	-8%	/
CC(C)CC(=O)NC(=S)Nc1ccc(NC(=O)c2cccs2)cc1	-0.4%	0.7	1.7%	2%	1.0	-2%	18%
Cc1c(C(=O)N2CCCC2)oc2c1-c1nn(CC(=O)NCCCN3CCCCC3C)cc1CC2 (stereo unspecified)	5.4%	-0.4	-0.9%	20%	?	9%	2%
COc1ccc(NC(=O)c2sc3nc(N4CCOCC4)c4c(c3c2N)CCCC4)cc1	-29%	-1.0	6.3%	-10%	/	/	/
COc1ccc(Nc2nc(N)nc(CN3CCN(c4ccccn4)CC3)n2)cc1	-7.2%	?	4.5%	29%	6.1	-3%	3%
Cc1ccnc(NC(=O)c2ccc(Cl)c(S(=O)(=O)N3CCCCC3)c2)c1	1.5%	-1.4	3.2%	-48%[inhibitor]	/	-1%	/
CC(=O)Nc1ccc(N2C(=O)CC(N3CCSCC3)C2=O)cc1 (stereo unspecified)	-1.5%	-4.0	-1.4%	-1%	-4.8	6%	14%
Cc1csc(NC(=O)CSc2nnc(NC(=O)C3CC(=O)N(c4ccccc4)C3)s2)n1 (stereo unspecified)	0.1%	-4.3	11%	0%	-1.4	4%	-4%
CCN(CC)C(=O)Cn1cc(S(=O)(=O)CC(=O)Nc2cc(OC)ccc2OC)c2ccccc21	1.0%	-5.9	2.6%	-1%[15.4 µM]	/	0%	-8%
O=C(Nc1cccc(S(=O)(=O)N2CCCC2)c1)c1cccc(S(=O)(=O)N2CCOCC2)c1	-1.7%	-2.4	1.8%	8%	/	-30%	/
Cc1cc(C)c2c(=O)n(CC(=O)Nc3ccc(Cl)cc3)sc2n1	-18%	-11	1.2%	?	-2.1	-11%	3.5µM*
CC(=O)C1=C(O)C(=O)N(Cc2cccnc2)C1c1ccccc1 (stereo unspecified)	-1.2%	-1.2	/	?	0.8	5%	-8%
CN(C)CCn1c2c(c(SCC(=O)Nc3ccccc3)nc1=O)CCCC2	-12%	-3.1	-2.5%	-9%[15.4 µM]	/	4%	/
O=C(CCc1ccccc1)NNC(=S)Nc1ccc(F)cc1	0.8%	-4.0	-0.2%	8%[15.4 µM]	0.0	9%	16%
Cc1cc(OCC(=O)NC2CC2)c2c(C)cc(=O)oc2c1	-3.3%	4.7	1.0%	-29%	3.7	3%	30%
O=C(Nc1ccc(N2CCOCC2)cc1)c1ccc([N+](=O)[O-])cc1	/	8.7	4.7%	-18%	-0.5	0%	-8%
Nc1nc2ccc(N3CCOCC3)cc2s1	0.6%	-2.6	-1.1%	2%	2.2	-30%	-12%
CC1(C)CC(=O)/C(=C(\O)CCCN2C(=O)c3ccccc3C2=O)C(=NCCO)C1	0.6%	-2.3	1.3%	-6%[15.4 µM]	-0.6	11%	11%
Oc1ccc2cc(Br)ccc2c1CN1CCCC1	/	-2.6	-0.4%	?	1.6	2%	11%
CC(C)(Oc1ccc(Cl)cc1)C(=O)OCn1nnc2ccccc2c1=O	-0.3%	0.9	0.7%	2%	4.3	2%	-3%
Cc1cc(NC(=S)Nc2cccc3ccccc23)n[nH]1	/	-2.4	1.4%	23%[15.4 µM]	-3.5	-57%	-7%
Cc1sc2ncn(CC(=O)NCCCC(=O)N3CCC(C)CC3)c(=O)c2c1C	-0.4%	-18	2.3%	-2%[15.4 µM]	2.2	5%	13%
C[C@H]1CN([C@@H](C)CO)C(=O)CCCn2nncc2CO[C@H]1CN(C)C(=O)Nc1cccc(Oc2ccccn2)c1	-4.8%	-2.8	1.8%	?	/	/	/
CCNC(=O)C1=C(O)c2sccc2N(C)S1(=O)=O	/	-0.5	1.2%	3%[15.4 µM]	-1.5	-1%	-2%
COc1ccc(Nc2ncnc3sc(-c4ccccc4)cc23)cc1OC	?	-0.5	0.5%	3%[15.4 µM]	-2.0	-15%	13%
Cc1cccc2sc(NNC(=O)c3cc(=O)c4ccccc4o3)nc12	2.9%	-0.6	1.8%	-32%[inhibitor]	?	-19%	45µM*
CCc1nc2c(OCCc3cccc(OC)c3)cccn2c1N(C=O)Cc1ccc(OC)cc1	-1.3%	9.1	0.2%	/	/	/	/
CSc1nnc2n(-c3ccc(C)cc3)c(=O)c3c4c(sc3n12)COC(C(C)C)C4 (stereo unspecified)	0.6%	-4.2	4.9%	-14%	-0.3	-9%	20%
Cc1cc(NC(=O)Cn2nc([N+](=O)[O-])c(Br)c2C)no1	/	-4.5	0.0%	-18%[15.4 µM]	-2.3	9%	0%
COc1ccc(CNC(=O)CC2(CC(=O)O)CCCCC2)cc1	1.0%	-11	3.3%	-7%	1.1	4%	12%
Cc1ccccc1NC(=S)N(Cc1ccco1)C(C)c1cccs1 (stereo unspecified)	/	0.1	-0.8%	-13%[15.4 µM]	-5.5	-11%	9%
COc1ccccc1C1=CC(=O)C[C@H](c2ccc(F)cc2)C1	0.6%	-1.9	1.4%	20%	/	-10%	/
CCCCOc1ccc(C(=O)N/C(=C\c2cccc([N+](=O)[O-])c2)C(=O)OC(C)C)cc1	2.4%	-3.8	8.9%	6%	-1.8	2%	3%
O=C(Nc1ccc(NC(=O)c2ccccc2F)cc1)c1cccs1	-7.6%	-0.4	3.0%	-1%	/	4%	/
COc1ccc(S(=O)(=O)N2CC=C(c3ccccc3)CC2)cc1OC	-0.7%	-2.3	0.5%	5%	/	/	/
COc1ccc(CCNC(=O)C2(c3ccccc3)CC2)cc1	0.6%	-3.7	-0.8%	26%	/	-1%	14%
CCCCN1C(=N)N([C@@H](CCC)CN2CCC[C@H]2CN2C(N)=NC[C@H]2C(C)C)C[C@H]1[C@H](C)CC	1.0%	-1.4	1.1%	/	/	14%	/
Cc1cccc(Cn2ncc(Cl)c(Cl)c2=O)c1	-1.4%	-0.2	-11%[38.3 µM]	-8%	1.1	-21%	4%
Cc1noc(C)c1COC(=O)c1ccccc1NC(=O)c1ccco1	/	-2.9	3.7%	?	12	-10%	-23%
O=C(NCc1cccs1)c1csc([C@@H]2C[C@H](O)[C@@H](CO)O2)n1	0.5%	-2.2	1.3%	/	/	/	/
COc1ccc(S(=O)(=O)NN(C)c2ncc(C(F)(F)F)cc2Cl)cc1	1.0%	-1.0	-0.2%	-30%[inhibitor]	0.5	-3%	-3%
CCN(CC)c1ccc(C=Nc2ccc(C)cc2C)c(O)c1	/	-6.4	1.8%	-24%[15.4 µM]	3.5	9%	-19%
COc1ccc(C(=O)NNS(=O)(=O)c2ccc(C)cc2)cc1	-8.0%	1.5	0.5%	-7%	-0.9	-4%	6%
Cc1cc(NC(=O)CN2C(=O)NC(Cc3ccccc3)C2=O)no1 (stereo unspecified)	-2.7%	0.7	-0.3%	10%	-8.6	2%	-22%
COc1ccc(C)cc1NC(=O)CNCc1cccs1	0.7%	0.3	0.9%	2%	0.9	-6%	-8%
COc1ccc(NC(=O)CC2SC(=NCc3ccccc3OC)NC2=O)cc1 (stereo unspecified)	1.2%	-0.1	-0.7%[38.3 µM]	-30%[inhibitor]	2.1	1%	11%
CCOc1ccc(NC(=O)CN(C)C(=O)c2cc3c(s2)CCC(C)C3)cc1OCC (stereo unspecified)	-1.1%	0.2	2.1%	9%	/	-16%	/
CCC(=O)c1cc(F)c(N2CCN(S(=O)(=O)c3ccc(C)cc3)CC2)cc1C	1.8%	-1.9	-0.6%[38.3 µM]	-11%	0.5	-14%	13%

Screens from PubChem BioAssay.
